A1 apoptosis 2: blocks A1, raising caspase activity; MEF A1-2A-BIM cells, caspase-Glo luminescence, 3 h; percent of clofoctol response, DMSO zero; caspase activation, % (test concentration not listed); 24,000 tested, under 10 active; in the data active = caspase activation above about 5.9%;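 also: wells of about 30 µL received 50 nL stock; the first replicate is given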
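Material: mouse embryonic fibroblasts co-expressing A1 and BIM (A1-2A-BIM), primed for A1 dependence / Quantity: 2500 cells/well / Buffer or medium: RPMI-1640 growth medium with 10% FBS / Doses: 50 nL compound per well, pinned / Schedule: 3 h compound exposure at 37 °C / Signal: Caspase-Glo luminescence (DEVD substrate) / Measure: Caspase-3/7 activation, seen as rise in luminescence signal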
Starred values were filed as active, the others as inactive. These rows are one share of the data (hit frequency here may not be typical).

smiles,A1 apoptosis 2
C[C@@H]1CN([C@@H](C)CO)C(=O)Cc2cc(NS(C)(=O)=O)ccc2O[C@@H]1CN(C)Cc1ccc(C(=O)O)cc1,0.5
C[C@@H]1CN([C@H](C)CO)C(=O)c2cccc(NS(=O)(=O)c3ccc(Cl)cc3)c2O[C@@H]1CN(C)S(=O)(=O)c1cccs1,-1.8
C[C@@H]1CN([C@@H](C)CO)C(=O)c2cccc(NC(=O)c3ccc(-c4nccs4)cc3)c2O[C@H]1CN(C)CC1CCCCC1,1.1
Cc1noc(C)c1NC(=O)Nc1ccc2c(c1)C(=O)N([C@H](C)CO)C[C@H](C)[C@H](CN(C)CC1CC1)O2,-0.2
Cc1noc(C)c1NC(=O)Nc1ccc2c(c1)C(=O)N([C@@H](C)CO)C[C@@H](C)[C@H](CN(C)C(=O)Nc1c(C)noc1C)OCCCC[C@@H](C)O2,0.2
C[C@@H]1CN([C@@H](C)CO)C(=O)c2cccc(NS(C)(=O)=O)c2O[C@H]1CN(C)C(=O)Nc1ccc(C(F)(F)F)cc1,0.1
C[C@H]1CN([C@@H](C)CO)C(=O)Cc2cc(NS(C)(=O)=O)ccc2O[C@H]1CN(C)S(=O)(=O)c1ccc(Cl)cc1,0.4
CNC[C@H]1Oc2c(NC(=O)c3ccc(-c4nccs4)cc3)cccc2C(=O)N([C@@H](C)CO)C[C@@H]1C,-0.1
C[C@@H]1CN([C@@H](C)CO)C(=O)c2cc(NS(=O)(=O)c3ccc(Cl)cc3)ccc2O[C@H]1CN(C)Cc1ccc2c(c1)OCO2,2.3
COc1ccc(S(=O)(=O)N(C)C[C@H]2OCCCC[C@H](C)Oc3ccc(NS(=O)(=O)c4cn(C)cn4)cc3C(=O)N([C@@H](C)CO)C[C@H]2C)cc1,0.9
C[C@H]1CN([C@@H](C)CO)C(=O)Cc2cc(NC(=O)Nc3cccc4ccccc34)ccc2O[C@H]1CN(C)S(=O)(=O)c1cn(C)cn1,-0.4
COc1ccc(S(=O)(=O)N(C)C[C@H]2Oc3ccc(NC(=O)Cn4cnnn4)cc3CC(=O)N([C@@H](C)CO)C[C@@H]2C)cc1,-0.6
CCO[C@@H]1OC(C(=O)N2CCOCC2)=C[C@H](c2ccc3c(c2)OCO3)[C@H]1CCCO,1.0
C[C@@H]1CN([C@H](C)CO)C(=O)Cc2cc(NC(=O)Cc3ccccc3)ccc2O[C@H]1CN(C)S(=O)(=O)c1cn(C)cn1,0.4
C[C@H]1CN([C@@H](C)CO)C(=O)c2cc(NC(=O)CCN3CCOCC3)ccc2O[C@@H]1CN(C)Cc1ccc(C(=O)O)cc1,0.6
C[C@@H]1CN([C@H](C)CO)C(=O)c2cccc(NC(=O)Nc3ccc(C(F)(F)F)cc3)c2O[C@@H]1CN(C)Cc1ccc2c(c1)OCO2,0.7
C[C@@H]1CN([C@@H](C)CO)C(=O)c2cccc(NS(=O)(=O)c3ccccc3)c2O[C@@H]1CN(C)C(=O)Nc1ccc2c(c1)OCO2,-0.3
C[C@@H]1CCCCO[C@@H](CN(C)C(=O)c2ccccc2)[C@@H](C)CN([C@@H](C)CO)C(=O)c2cc(NS(=O)(=O)c3cn(C)cn3)ccc2O1,-0.8
C[C@@H]1CN([C@@H](C)CO)C(=O)Cc2cc(NC(=O)c3ccncc3)ccc2O[C@@H]1CN(C)CC1CCCCC1,1.2
COc1ccc(NC(=O)N(C)C[C@@H]2OCCCC[C@H](C)Oc3ccc(NC(=O)Nc4ccc5c(c4)OCO5)cc3C(=O)N([C@@H](C)CO)C[C@@H]2C)cc1,1.0
C[C@@H]1CCCCO[C@H](CN(C)CC2CCCCC2)[C@H](C)CN([C@@H](C)CO)C(=O)c2cc(NS(=O)(=O)c3ccc(F)cc3)ccc2O1,-0.1
C[C@@H]1CN([C@@H](C)CO)C(=O)c2cc(N(C)C)ccc2O[C@H]1CN(C)C(=O)Nc1ccc(F)cc1,0.0
C[C@H](CO)N1C[C@H](C)[C@H](CN(C)CC2CC2)Oc2ccc(NC(=O)Nc3ccccc3)cc2CC1=O,1.4
Cc1noc(C)c1NC(=O)Nc1ccc2c(c1)CC(=O)N([C@H](C)CO)C[C@H](C)[C@H](CN(C)Cc1ccc3c(c1)OCO3)O2,0.7
COC(=O)c1ccc([C@H]2C=C(C(=O)O)O[C@@H](OCc3ccc(CO)cc3)C2)cc1,-1.2
C[C@@H]1CN([C@@H](C)CO)C(=O)Cc2cc(NS(=O)(=O)c3cccs3)ccc2O[C@H]1CN(C)Cc1ccc(Cl)c(Cl)c1,0.0
CC(C)NC(=O)N(C)C[C@H]1Oc2ccc(NC(=O)CCCCCC(=O)Nc3ccccc3N)cc2CC(=O)N([C@H](C)CO)C[C@@H]1C,-1.0
CNC[C@H]1Oc2ccc(NC(=O)Nc3ccccc3)cc2CC(=O)N([C@H](C)CO)C[C@H]1C,1.6
Cc1noc(C)c1S(=O)(=O)Nc1ccc2c(c1)C(=O)N([C@@H](C)CO)C[C@@H](C)[C@@H](CN(C)S(=O)(=O)c1ccc(F)cc1)OCCCC[C@H](C)O2,-0.9
C[C@@H]1CN([C@@H](C)CO)C(=O)c2cc(NC(=O)c3ccncc3)ccc2O[C@@H](C)CCCCO[C@H]1CN(C)S(=O)(=O)c1ccc(F)cc1,-0.4
C[C@@H]1CCCCO[C@@H](CN(C)C(=O)NC2CCCCC2)[C@H](C)CN([C@H](C)CO)C(=O)c2cc(NC(=O)CCC(F)(F)F)ccc2O1,-0.1
C[C@@H]1CN([C@H](C)CO)C(=O)c2cccc(NS(=O)(=O)c3cn(C)cn3)c2O[C@@H]1CN(C)Cc1ccncc1,0.4
Cc1noc(C)c1NC(=O)N(C)C[C@@H]1Oc2ccc(NC(=O)Cc3ccccc3)cc2CC(=O)N([C@H](C)CO)C[C@@H]1C,0.3
C[C@@H]1CN([C@H](C)CO)C(=O)c2cc(NS(=O)(=O)c3ccc(Cl)cc3)ccc2O[C@@H](C)CCCCO[C@H]1CN(C)C(=O)Nc1ccccc1,-0.8
Cc1ccc(S(=O)(=O)N(C)C[C@@H]2Oc3c(NC(=O)Nc4ccccc4)cccc3C(=O)N([C@H](C)CO)C[C@@H]2C)cc1,-0.6
CC(C)COC(=O)N(C)C[C@H]1OCc2cn(nn2)CCCC(=O)N([C@@H](C)CO)C[C@@H]1C,0.0
C[C@@H]1CN([C@H](C)CO)C(=O)c2cccc(NC(=O)Nc3cccc4ccccc34)c2O[C@H]1CN(C)C(=O)Nc1ccc(C(F)(F)F)cc1,0.7
C[C@@H]1CN([C@H](C)CO)C(=O)c2cc(NC(=O)NC3CCCCC3)ccc2O[C@@H]1CN(C)Cc1ccc(-c2ccccc2)cc1,0.1
Cc1noc(C)c1NC(=O)Nc1cccc2c1O[C@@H](CN(C)C(=O)Nc1c(C)noc1C)[C@H](C)CN([C@H](C)CO)C2=O,0.4
C[C@@H]1CN([C@H](C)CO)C(=O)c2cccc(NS(=O)(=O)c3ccc(Cl)cc3)c2O[C@@H]1CN(C)CC1CC1,0.2
C[C@@H]1CN([C@@H](C)CO)C(=O)CCCn2cc(nn2)CO[C@@H]1CN(C)C(=O)NC1CCCC1,-1.7
C[C@@H]1CN([C@@H](C)CO)C(=O)CCCn2nncc2CO[C@H]1CN(C)C(=O)Nc1ccc2c(c1)OCCO2,0.4
COc1ccc(S(=O)(=O)N(C)C[C@H]2OCCCC[C@@H](C)Oc3ccc(NC(=O)C4CCCCC4)cc3C(=O)N([C@@H](C)CO)C[C@H]2C)cc1,0.4
C[C@H](CO)N1C[C@H](C)[C@@H](CN(C)C)Oc2c(NC(=O)C3CCOCC3)cccc2C1=O,-0.6
COc1ccc(S(=O)(=O)Nc2ccc3c(c2)CC(=O)N([C@@H](C)CO)C[C@@H](C)[C@@H](CN(C)C(=O)NC(C)C)O3)cc1,-0.1
C[C@H]1CCCCO[C@H](CN(C)Cc2ccc3c(c2)OCO3)[C@@H](C)CN([C@@H](C)CO)C(=O)c2cc(NS(=O)(=O)c3ccc(Cl)cc3)ccc2O1,-1.2
COc1ccc(S(=O)(=O)Nc2ccc3c(c2)CC(=O)N([C@@H](C)CO)C[C@H](C)[C@@H](CN(C)S(=O)(=O)c2cccs2)O3)cc1,0.5
Cc1noc(C)c1S(=O)(=O)Nc1ccc2c(c1)CC(=O)N([C@H](C)CO)C[C@@H](C)[C@H](CN(C)S(=O)(=O)c1cccs1)O2,-0.4
C[C@@H]1CN([C@@H](C)CO)C(=O)Cc2cc(NC(=O)Nc3ccccc3)ccc2O[C@H]1CN(C)Cc1ccc(C(=O)Nc2ccccc2N)cc1,-0.4
CNC[C@H]1Oc2ccc(NC(=O)CCC(F)(F)F)cc2C(=O)N([C@H](C)CO)C[C@H]1C,0.2

Part of the list above in a different format:
C[C@@H]1CN([C@@H](C)CO)C(=O)c2cc(NC(=O)c3ccncc3)ccc2O[C@@H](C)CCCCO[C@H]1CN(C)S(=O)(=O)c1ccc(F)cc1
  A1 apoptosis 2 = -0.4
COc1ccc(S(=O)(=O)N(C)C[C@H]2OCCCC[C@@H](C)Oc3ccc(NC(=O)C4CCCCC4)cc3C(=O)N([C@@H](C)CO)C[C@H]2C)cc1
  A1 apoptosis 2 = 0.4
C[C@@H]1CN([C@H](C)CO)C(=O)c2cc(NC(=O)NC3CCCCC3)ccc2O[C@@H]1CN(C)Cc1ccc(-c2ccccc2)cc1
  A1 apoptosis 2 = 0.1
Cc1noc(C)c1S(=O)(=O)Nc1ccc2c(c1)CC(=O)N([C@H](C)CO)C[C@@H](C)[C@H](CN(C)S(=O)(=O)c1cccs1)O2
  A1 apoptosis 2 = -0.4

(listing goes on)
smiles,A1 apoptosis 2
C[C@@H]1CN([C@@H](C)CO)C(=O)Cc2cc(NC(=O)Cn3cnnn3)ccc2O[C@H]1CN(C)Cc1ccccc1,-0.5
CNC[C@H]1OCCCC[C@@H](C)Oc2ccc(NC(=O)Nc3ccccc3)cc2C(=O)N([C@H](C)CO)C[C@H]1C,-0.4
O=C(NCc1ccccc1)C1=C[C@H](c2csc3ccccc23)C[C@H](OCc2ccc(CO)cc2)O1,0.6
Cc1noc(C)c1S(=O)(=O)N(C)C[C@@H]1Oc2ccc(NS(C)(=O)=O)cc2CC(=O)N([C@H](C)CO)C[C@H]1C,-0.5
C[C@@H]1CN([C@@H](C)CO)C(=O)c2cc(NC(=O)Nc3ccccc3)ccc2O[C@@H](C)CCCCO[C@H]1CN(C)S(=O)(=O)c1ccccc1,-1.4
C[C@@H]1CCCCO[C@@H](CN(C)CC2CC2)[C@H](C)CN([C@@H](C)CO)C(=O)c2cc(NC(=O)CCCN(C)C)ccc2O1,0.8
O=C1O[C@H](c2ccccc2)[C@H](c2ccccc2)N2[C@H]1[C@@H](C(=O)Nc1nc3ccccc3s1)[C@]1(C(=O)Nc3ccc(C#CC4(O)CCCCCC4)cc31)[C@H]2c1ccc(OCCO)cc1,0.5
C[C@@H]1CCCCO[C@H](CN(C)C(=O)C2CCCCC2)[C@@H](C)CN([C@@H](C)CO)C(=O)c2cc(NS(=O)(=O)c3cccs3)ccc2O1,0.0
C[C@H](CO)N1C[C@H](C)[C@H](CN(C)Cc2ccncc2)OCCCC[C@H](C)Oc2ccc(N(C)C)cc2C1=O,-0.6
Cc1noc(C)c1NC(=O)Nc1ccc2c(c1)C(=O)N([C@@H](C)CO)C[C@H](C)[C@@H](CN(C)Cc1ccc(C(=O)O)cc1)O2,0.1
COc1ccc(CN(C)C[C@@H]2Oc3c(NC(=O)c4cc(C)nn4C)cccc3C(=O)N([C@H](C)CO)C[C@H]2C)cc1,0.4
C[C@H]1CN([C@@H](C)CO)C(=O)Cc2cc(NC(=O)Cn3cnnn3)ccc2O[C@@H]1CN(C)CC1CCCCC1,-0.7
Cc1ccc(S(=O)(=O)N(C)C[C@H]2OCCCC[C@H](C)Oc3ccc(NC(=O)Nc4ccc(C(F)(F)F)cc4)cc3C(=O)N([C@H](C)CO)C[C@@H]2C)cc1,0.7
Cc1noc(C)c1S(=O)(=O)N(C)C[C@@H]1Oc2ccc(NC(=O)Cn3cnnn3)cc2CC(=O)N([C@@H](C)CO)C[C@@H]1C,-0.6
COC(=O)C1=C2CC[C@H](CO)NC(=O)N[C@H](Cc3ccccc3)C(=O)NCc3cn(nn3)C[C@H](Cc3ccccc3)NC(=O)c3oc(c(C(=O)OC)c3C(=O)OC)CC[C@H](CO)NC(=O)N[C@H](Cc3ccccc3)C(=O)NCc3cn(nn3)C[C@H](Cc3ccccc3)NC(=O)C(=C1C(=O)OC)O2,-0.2
Cc1noc(C)c1NC(=O)N(C)C[C@@H]1Oc2ccc(NS(=O)(=O)c3cn(C)cn3)cc2C(=O)N([C@@H](C)CO)C[C@H]1C,0.2
C[C@@H]1CN([C@@H](C)CO)C(=O)c2cc(NC(=O)Nc3cccc4ccccc34)ccc2O[C@H]1CN(C)C(=O)NC1CCCCC1,-0.3
C[C@@H]1CN([C@H](C)CO)C(=O)c2cc(NC(=O)C3CCCCC3)ccc2O[C@H]1CN(C)S(C)(=O)=O,0.5
CC(C)NC(=O)Nc1ccc2c(c1)C(=O)N([C@@H](C)CO)C[C@@H](C)[C@H](CN(C)S(=O)(=O)c1ccc(Cl)cc1)OCCCC[C@@H](C)O2,-1.2

Screening data as filed in PubChem.
